# T cruzi repl: T. cruzi replication inhibition; AID 1885; T. cruzi beta-gal in NIH3T3, luminescence, 90 h; inhibition, % (test concentration not listed); 300,000 tested, 1.4% active;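 active means mean inhibition across valid replicates above about 55%, limit read from the data; inconclusive means mean below that limit but half or more replicates reach it; inactive means mean below it, under half of replicates reach it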;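 further: signal also drops with host cell toxicity which is not excluded here; 0% = plate median of DMSO wells and 100% = zero luminescence signal; higher percent means less beta-gal luminescence so fewer parasites; stock transfer was 50 nL into about 50 µL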
# AF4-AF9 inh: MLL-AF4/AF9 protein interaction inhibition; AID 651704; 350,000 tested, 0.47% active; AlphaScreen, biotin-AF4 peptide binding to FLAG-AF9; P42568; inhibition, % at 10 µM;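 active means every replicate reaching a set inhibition limit, whatever the replicate mean, cut at about 25% in these data; inconclusive means mean inhibition reaches that limit but some replicates miss it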;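 further: 0% = plate neutral control median and 100% = total signal loss; the record names both 10 and 1 µM as test concentration; the first replicate is given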
# Target sequence (P42568 whole entry, looked up): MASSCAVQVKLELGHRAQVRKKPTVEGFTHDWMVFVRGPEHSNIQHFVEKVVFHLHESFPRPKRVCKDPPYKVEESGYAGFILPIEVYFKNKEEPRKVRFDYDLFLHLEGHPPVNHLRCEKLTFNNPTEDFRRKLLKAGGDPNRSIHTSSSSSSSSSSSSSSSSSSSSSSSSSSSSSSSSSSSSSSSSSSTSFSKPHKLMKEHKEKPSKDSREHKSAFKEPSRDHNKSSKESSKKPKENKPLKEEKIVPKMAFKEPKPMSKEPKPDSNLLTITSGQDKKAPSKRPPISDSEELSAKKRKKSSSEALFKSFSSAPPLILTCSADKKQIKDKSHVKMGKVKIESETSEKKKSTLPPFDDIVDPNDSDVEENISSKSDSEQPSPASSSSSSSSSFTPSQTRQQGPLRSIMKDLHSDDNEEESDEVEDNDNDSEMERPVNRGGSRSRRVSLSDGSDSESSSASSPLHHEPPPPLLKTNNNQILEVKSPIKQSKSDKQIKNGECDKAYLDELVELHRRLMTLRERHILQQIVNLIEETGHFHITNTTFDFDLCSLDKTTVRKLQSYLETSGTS
# rRNA inh HTS: inhibits bacterial ribosomal RNA function over humanized ribosomes. E. coli WT GFP vs humanized-ribosome RFP mutants, fluorescence, 24 h; hits give low values; DMSO median 0, no signal -100. GFP signal change (wild-type ribosome), % (concentration not given with the values). 350,000 tested, 1.6% active;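 active means significant combined selectivity score with lowered wild-type GFP, culture density cut under 30%, mutant RFP and density less affected; inactive means any of these conditions unmet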; further: one replicate is shown; some compounds called inactive have numbers as strong as hits
# Beta cell apopt: blocks beta cell apoptosis | 300,000 tested, 0.8% active | INS-1E cytokine-induced death, ATP luminescence, 48 h; percent of positive-control rescue, neutral wells zero | protection from apoptosis, % (test concentration not listed);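 active means all replicates at 75% or more, or half of them and the mean; inconclusive means half reach 75% but not the mean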;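 further: 0% = cytokine-treated negative control wells and 100% = positive control rescue; higher means more ATP so stronger rescue from cytokine killing; wells of about 40 µL received 100 nL stock; the first replicate is given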
# E coli growth: E. coli growth inhibition | Escherichia coli growth, OD600, 23 h; hits give low values | AID 1053175 | 330,000 tested, 0.21% active | OD600 absorbance (concentration not given with the values);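 active means OD600 absorbance below the run mean of sample wells minus 3.6 SD, in any replicate, cut at about 0.56 in these data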;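 further: stock transfer was 300 nL into about 60 µL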
# UCH37 inh: blocks the human deubiquitinase UCH37 | 330,000 tested, 0.33% active | inhibition, % (test concentration not listed) | purified proteasome/UCH37, Ub-AMC cleavage fluorescence | Q9Y5K5;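 active means mean of two replicates above 20%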;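 further: 0% = compound-free wells with enzyme and 100% = wells lacking proteasome; stock transfer was 100 nL into about 20 µL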
# Target sequence (Q9Y5K5 whole entry, looked up): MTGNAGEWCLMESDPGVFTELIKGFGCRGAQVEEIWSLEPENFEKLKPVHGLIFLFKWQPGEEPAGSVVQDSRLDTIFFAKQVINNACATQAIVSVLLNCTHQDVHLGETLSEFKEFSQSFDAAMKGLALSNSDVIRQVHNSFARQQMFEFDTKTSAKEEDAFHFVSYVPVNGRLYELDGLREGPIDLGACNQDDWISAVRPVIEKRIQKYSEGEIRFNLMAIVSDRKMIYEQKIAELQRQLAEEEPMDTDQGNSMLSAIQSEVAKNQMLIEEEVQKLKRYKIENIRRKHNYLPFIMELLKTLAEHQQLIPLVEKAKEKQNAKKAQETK
#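 system = Proteasome-associated human UCH37 deubiquitinase | amount = 0.15 nM proteasome as dispensed | medium = pH 7.4 Tris-HCl (50 mM) with ovalbumin, ATP-MgCl2, DTT | incubation = 30 min preincubation with enzyme, 25 min cleavage at room temperature | detection = AMC fluorescence 355/460 nm | read-out basis = percent inhibition | controls = no-proteasome and no-compound wells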
# A1 inh: inhibitors of the anti-apoptotic protein A1, read as caspase activation; MEF A1-2A-BIM cells, Caspase-Glo 3/7 luminescence, 3 h; percent of clofoctol response, vehicle zero; 330,000 tested, 0.066% active; caspase activation, % (no concentration beside the values); AID 2462;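 active means over half of replicate activation scores above 10%, or exactly half above 10 with the replicate mean above 10; inconclusive means replicate mean below 10 yet half the replicates above 10; inactive means over half of replicates below 10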;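 further: wells of about 30 µL received 50 nL stock; many hits fall short of the cut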
# FGF22 binding: FGF22 (human) thermal shift binding; calls only at 9.99 µM; recombinant FGF22 thermal shift, SYPRO orange fluorescence; percent of sucrose octasulfate shift, DMSO zero; 340,000 tested, 1.5% active; Q9HCT0;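 active means melting point raised past a set limit in the mean and every replicate; inconclusive means no clear call; three in four hits are not shown here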
# Target sequence (Q9HCT0 whole entry, looked up): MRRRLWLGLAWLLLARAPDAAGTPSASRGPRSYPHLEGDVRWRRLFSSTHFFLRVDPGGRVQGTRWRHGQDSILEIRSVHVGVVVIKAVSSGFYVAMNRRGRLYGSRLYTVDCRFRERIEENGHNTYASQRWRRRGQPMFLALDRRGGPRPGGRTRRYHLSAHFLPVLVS
# rRNA inh HTS OD600: also measured in rRNA inh HTS; calls as there; OD600 change, %; measured here: OD600 growth;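 optical density of the mix in the first replicate; 0 = DMSO median and -100 = no signal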
# rRNA inh HTS RFP: second read-out of rRNA inh HTS, no call of its own (marks repeat the call); RFP signal change, %; measured here: RFP humanized mutant strains;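 first replicate; 0 = DMSO median and -100 = no signal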
# * = called active by the depositor; i = inactive; ? = inconclusive; nt = no result given. Only part of the results is shown. The share of hits here may be higher or lower than overall.
# Values run as follows: rRNA inh HTS, A1 inh, UCH37 inh, T cruzi repl, FGF22 binding, rRNA inh HTS RFP, E coli growth, Beta cell apopt, AF4-AF9 inh, rRNA inh HTS OD600
O=c1nc(SCc2c(F)cccc2Cl)nc(-c2ccc(Cl)cc2)[nH]1
    11, 0.1, 2.8, -2, i, 0.9, 0.69, -2, -1.2, 2
COc1ccc(CNC(=O)COC(=O)c2ccc(C(=O)c3ccccc3)cc2)cc1
    2, -1.4, 3.1, nt, i, 14, 0.66, 1, -2.1, 7
COc1ccc(/C=C2\SC(=S)N(CCC(=O)N3CCOCC3)C2=O)cc1
    14, 0.0, nt, -2, i, 2.1, nt, -10, -3.9, 15
COCCn1c(SCC(=O)c2cc(C)n(C)c2C)nc2ccccc2c1=O
    3, 0.5, 2.3, 6, i, -9.0, 0.7, -7, -4.2, -9
CCOC(=O)C1CCN(Cc2cccc(Oc3ccccc3)c2)CC1
    -12, 1.1, -0.8, 6, i, 0.4, 0.67, -6, -2.8, -11
CCCc1nc2oc3ccccc3c(=O)c2c(=O)n1CCCOC
    -3, 1.0, 4.9, -3, i, 5.8, 0.68, -2, nt, 8
Cc1ccc(S(=O)(=O)N2CCN(C(=O)c3ccc(S(=O)(=O)N4CCCC4)cc3)CC2)cc1
    9, -0.6, -0.4, 35, i, -2.1, 0.68, nt, -2.0, 1
O=C(CSc1nc2ccccc2s1)Nc1ccc2c(c1)OCO2
    -28*, 0.0, 1.8, -8, i, -4.4*, 0.69, -3, -2.0, -22*
Nc1[nH][nH]c(=O)c1N=Nc1cccc(Cl)c1
    -15, -0.8, 11, 3, i, -6.4, 0.65, 2, -16, -8
COc1cc(OC)c2c(c1O)OC(c1ccccc1)CC2=O (stereo not given)
    5, 0.3, 0.0, -17, i, -4.5, 0.79, -5, 3.6, -10
O=C(Nc1cccs1)Nc1ccc(Br)cc1F
    4, -2.1, 3.8, -16, nt, 4.6, 0.49*, 2, -3.8, 6
O=C(COC(=O)c1cnccn1)c1ccc(-c2ccccc2)cc1
    8, -0.2, 3.5, 24, i, 0.3, 0.69, -4, -3.1, 12
O=C(NCCCNC(=O)c1cccs1)c1cccs1
    nt, 0.3, -1.0, -4, nt, nt, 0.73, -9, nt, nt
CCOC(=O)Cn1c(=O)oc2cc(S(=O)(=O)NC(C)c3ccccc3)ccc21 (stereo not given)
    -4, -0.3, 6.5, -5, i, -0.3, 0.73, -6, -4.4, -16
COc1ccc2oc(C(=O)N3CCN(S(=O)(=O)c4c(C)c(C)cc(C)c4C)CC3)c(C)c2c1
    12, nt, -1.7, nt, i, -1.6, 0.74, nt, 6.4, 5
Cc1ccccc1OC1CCN(C(=O)c2cc(COc3ccccc3)on2)CC1
    -14, 1.6, 4.8, 20, i, -6.6, 0.72, -2, -3.4, -20
Cc1ccc(C)c(C(C)NC(=O)c2ccncc2)c1 (stereo not given)
    2, 2.1, 3.0, -6, i, -1.6, 0.64, -1, -5.1, 7
Cc1nnc(SCCn2c(N3CCCCC3)nc3c2c(=O)[nH]c(=O)n3C)s1
    nt, 0.2, 0.9, 3, nt, nt, 0.69, -5, nt, nt
Cc1cccc(-c2oc3ccccc3c2C#CCCCCO)c1
    2, 0.2, nt, 13, i, -12, nt, -1, 7.3, 7
N#Cc1cccc(Oc2ccc(-c3cnc4ccccc4n3)cc2)c1C#N
    nt, -0.5, -3.4, 2, nt, nt, 0.69, 16, nt, nt
Cc1ccc(NC(=O)C(c2ccccc2)N2CCN(CC(=O)NC3CC3)CC2)cc1Cl (stereo not given)
    nt, -0.7, 4.4, nt, i, nt, 0.7, 0, 1.7, nt
CCOC(=O)C1(Cc2cccc(OC)c2)CCN(C/C=C/c2ccccc2)CC1
    -56, -1.4, 1.0, 39, i, -18, 0.65, 8, 8.2, -76
CCC(CC)C(=O)c1c[nH]c(C(=O)O)c1
    12, 0.1, 0.7, -8, i, 1.8, 0.72, -2, -1.7, 1
COCCCNC(=O)CSc1nc2sc(C(=O)OC)c(C)c2c(=O)n1N
    4, 0.7, 3.3, -3, i, 1.3, 0.66, 0, 0.9, 0
CC1(C)CC(=O)C2=C(C1)Nc1ccccc1NC2c1cc(Cl)ccc1O (stereo not given)
    11, 0.5, 9.0, 21, i, 27, 0.65, 25, 2.4, 0
COc1ccc2nc(NC(=O)c3ccc(-n4nc(C)cc4C)cc3)sc2c1
    nt, 0.0, -42, ?, nt, nt, 0.78, 3, nt, nt
CN(C)c1ccc(CNC(=O)CCNS(=O)(=O)c2cc(Br)cnc2N)cc1
    nt, -3.4, 0.8, 8, nt, nt, 0.63, -6, nt, nt
CCOC(=O)/C=C/C(=O)OCC(=O)NC(c1ccccc1)c1ccccc1
    nt, -0.5, 4.5, -33, nt, nt, 0.65, -14, nt, nt
CCOC(=O)C1CCN(C(=O)COC(=O)c2cc([N+](=O)[O-])ccc2N2CCOCC2)CC1
    -6, 0.4, 5.6, 0, i, -2.7, 0.7, 2, -3.6, 2
COCCOCCn1c(/C=C/c2ccccc2)nc2ccccc21
    5, -7.5, -196, 10, i, 1.4, 0.67, 10, 6.6, 10
COC(=O)C1CCCN1C(=O)COc1ccc(Br)cc1Cl (stereo not given)
    nt, 0.5, 7.1, -5, i, nt, 0.71, 0, -7.2, nt
CCCN(CCC)CCCNC(=O)Cn1cnc2sc(C)c(S(=O)(=O)N3CCOCC3)c2c1=O
    8, -0.5, 0.8, -6, i, -0.6, 0.7, -2, 2.6, 16
CNC(=S)NC1CC2CCCC(C1)N2Cc1ccco1 (stereo not given)
    9, 0.0, -1.9, -10, nt, 0.9, 0.68, -17, -12, 2
CCC1CN(C(=O)Nc2ccc(C)cc2)c2cc(C)ccc2O1 (stereo not given)
    -32, 1.2, 2.7, 10, i, -23, 0.73, 2, -12, -54
O=C(NCc1ccc2c(c1)OCO2)c1nnc(Cc2ccc(Cl)cc2)o1
    -4, 2.1, 0.6, 11, nt, -1.0, 0.71, -11, -1.1, 24
Cc1ccc(N(CC(=O)NC2CCCC2)C(=O)CCC(=O)Nc2nc(C)cs2)cc1
    9, -0.3, 2.6, 2, i, 0.9, 0.67, -5, 0.7, 9
O=C(Nc1ccc(NS(=O)(=O)c2ccccc2)cc1)c1ccccc1
    5, -0.1, nt, 8, i, 3.1, nt, -1, -0.9, 10
CCCCn1c(SCC(=O)N2c3ccccc3CCc3ccccc32)nc2c1c(=O)n(C)c(=O)n2C
    0, -0.6, 0.3, 25, nt, -4.1, 0.74, 10, nt, 6
Clc1cccc(CNCCCSc2ncccn2)c1Cl
    -1, 0.0, 2.1, 25, i, -0.8, 0.7, -7, -16, 1
Cc1ccccc1CC1(CO)CCCN(C(=O)c2ccccc2Cl)C1 (stereo not given)
    -21, 0.3, -0.3, -2, i, -9.2, 0.7, 3, -0.1, -36
CN1C(=O)CCC2(c3ccccc3)CC=C(O)C=C12 (stereo not given)
    17, nt, 0.3, nt, i, 0.2, 0.68, nt, -2.2, 28
N#Cc1ccccc1COc1cccc2c1CCCC2O (stereo not given)
    1, -0.2, 4.0, -6, i, 1.1, 0.7, 3, -1.5, -1
COC(=O)[C@@H]1[C@@H](C#N)C2(c3ccccc3-c3ccccc32)N(c2ccc(Cl)cc2)N1C#N
    nt, 2.7, 2.7, -43, nt, nt, 0.68, -10, nt, nt
O=C(CN1C(=O)C2C3C=CC(C3)C2C1=O)NC1CCCc2ccccc21 (stereo not given)
    nt, -2.3, 4.1, 3, nt, nt, 0.71, nt, nt, nt
COc1cccc(-c2csc(N3CCN(CC(=O)NNC(=O)c4ccco4)CC3)n2)c1
    8, -0.2, 3.1, 2, i, 0.5, 0.68, -6, 0.8, 7
COC(=O)C1=C(C(=O)OC)[C@@H]2N(C)c3ccccc3[C@@]23C[C@@H](C(=O)OC)N(C(=O)c2cccs2)C3=N1
    4, 0.2, 2.0, -7, i, 7.3, nt, -7, 8.2, 7
CC1=C(C(N)=O)S(=O)(=O)c2ccccc21
    1, 0.0, 3.8, -10, i, -6.8, 0.66, -4, -1.5, -2
COc1ccccc1/C=C/c1onc(C)c1S(=O)(=O)N1CCC(C(=O)NC(C)C)CC1
    -2, 0.8, -14, 10, i, 0.7, 0.79, 3, 0.4, -6
CC(C)(C)OC(=O)N1CCN(C(=O)Nc2ccc3c(c2)OCCO3)CC1
    7, 0.2, 0.4, -13, i, -3.3, 0.69, 10, 1.8, -21
CC(C)COc1cccc(C(=O)NC(=S)NCc2cccnc2)c1
    nt, -0.1, 2.5, 14, nt, nt, 0.69, -11, nt, nt
COc1ccc(S(=O)(=O)N2CCOCC2)cc1NS(=O)(=O)c1ccc(F)c(F)c1
    5, -1.7, 1.9, nt, i, 0.9, 0.67, -2, 0.6, 2
COc1ccc(CCC(C)Nc2cccc(C)c2)cc1 (stereo not given)
    nt, 0.5, -2.2, 17, nt, nt, 0.73, 1, nt, nt
Cc1cc(NC(=O)CN2C(=O)[C@@H]3[C@H](C2=O)[C@@H]2C[C@H]3C(Br)C2Br)no1 (stereo not given in full)
    -11, -0.7, 4.4, 0, i, 0.6, 0.62, 2, 3.4, -19
COC(=O)c1c(-c2ccc(Br)cc2)noc1N
    nt, -0.5, 4.0, -24, nt, nt, 0.65, -5, nt, nt
CCC(C)C(=O)Nc1ccc(OC)cc1OC (stereo not given)
    nt, -0.1, 0.7, 6, nt, nt, 0.64, 0, nt, nt
C=CCN=Cc1sc2ccc(OCC)cc2c1O
    8, -0.8, 2.1, -6, i, 11, 0.66, -5, 9.4, 7
Cc1ccc(NC(=O)CSc2nnc(NC(=O)c3ccco3)s2)cc1
    11, -0.4, 4.0, -4, i, 1.3, 0.69, -1, 0.1, 16
COC(=O)C1=C(C)OC(N)=C(C#N)C1c1c(C)nn(C)c1C (stereo not given)
    17, 0.2, -19, -6, i, 2.0, 0.69, 5, -1.7, 14
C[C@@H](O)CC#Cc1ccc2oc(=O)c(-n3cc(-c4ccsc4)nn3)cc2c1
    2, -0.5, 0.0, nt, i, -0.5, nt, 2, nt, 3

# Record cards, as listed above.
# COc1cccc(-c2csc(N3CCN(CC(=O)NNC(=O)c4ccco4)CC3)n2)c1 is entered as rRNA inh HTS: 8; A1 inh: -0.2; UCH37 inh: 3.1; T cruzi repl: 2; FGF22 binding: i; rRNA inh HTS RFP: 0.5; E coli growth: 0.68; Beta cell apopt: -6; AF4-AF9 inh: 0.8; rRNA inh HTS OD600: 7
# CCC(C)C(=O)Nc1ccc(OC)cc1OC (stereo not given) is entered as rRNA inh HTS: nt; A1 inh: -0.1; UCH37 inh: 0.7; T cruzi repl: 6; FGF22 binding: nt; rRNA inh HTS RFP: nt; E coli growth: 0.64; Beta cell apopt: 0; AF4-AF9 inh: nt; rRNA inh HTS OD600: nt
